Source: PubChem BioAssay
Sfp inh: inhibitors of Bacillus subtilis Sfp phosphopantetheinyl transferase; actives 3.5% (n = 310,000); Biochemical Sfp PPTase activity, qHTS; Potency, µM, without a hit: max response, negative = inhibition, actives largely listed as inhibitors; Q9F4F7; active means well fitted inhibition curve with a large enough effect; inconclusive means small, poorly fitted or top-dose-only effect, or another doubt; inactive means no such curve, though single readings can be large or run the other way;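 further: the enzyme is Sfp with the accession as filed and its product quenches rhodamine fluorescence; potency means the concentration at half of the fitted maximal effect; 0% = enzyme reaction without inhibitor and -100% = no enzyme wells; top concentration of the series not given in the record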
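After 15 min at room temperature with compound, 15 nM Sfp received 5 uM rhodamine-CoA plus 12.5 uM BHQ-2-ybbR (50 mM Hepes pH 7.6, 10 mM MgCl2). Rate came from the fluorescence difference over 30 min, ex 525/em 598 nm.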
gsp antag: gsp mutant antagonism. gsp-mutant cells, cAMP HTRF, 30 min; control for the full effect not named in the record. Potency, µM (series often up to 76.9 µM), for the others: at the highest dose activity change, negative = inhibition, usual class: inhibitors. actives 0.4% (n = 340,000). AID 624288; active = falling curve of any shape with a large fitted effect; inconclusive = falling curve, mostly with a smaller effect; inactive = flat or rising curve; cell line not stated here;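 further: intracellular cAMP measured with PDE inhibitor Ro 20-1724 present during compound exposure; potency means the concentration at half of the fitted maximal effect; on the % scale 0 is the no-effect control and ±100 the full control effect; nearly all actives have a fitted effect of over 65% in size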
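Cells in G418 medium, seeded 16-24 h, 37C; buffer exchange to DPBS + 1 mM CaCl2, 0.5 mM MgCl2, 0.05% BSA; cpds in DMSO + […] (300 uM stock), 30 min 37C; HTRF cAMP detection.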
TRPV1 PAM: enhances activation of the human vanilloid receptor TRPV1 | Q8NER1 | TRPV1-expressing cells, Fluo-8 calcium influx, capsaicin EC20 potentiation; host cell line not named in the record; control for the full effect not named in the record | potentiation, % at 8.33 µM | actives 0.02% (n = 320,000) | AID 540277; active means potentiation above 80%; inconclusive means 30% to 80%; inactive means below 30%; further: 0% is about no effect
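TRPV1-expressing cells were cultured overnight at 35.5C and loaded with Fluo-8 calcium dye for 40 to 90 min at room temperature. After a 10 s baseline, compound was added and calcium influx was read kinetically for 3 min (ex 480/em 520 nm).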
TRPML1 inh: blocks the human TRPML1 channel; TRPML1-inducible cells, Ca2+ dye fluorescence, FDSS; hits give low values; inhibition of EC80 agonist-evoked calcium signal; actives 0.02% (n = 390,000); AID 624415; Q9GZU1; activity change, negative = inhibition, % (concentration not given with the values); in the data active means activity change below about -50%; inconclusive means about -30% to -50%; inactive means above about -30%;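 further: stimulus is agonist 54-4 at its EC80 concentration; on the % scale 0 is the no-effect control and ±100 the full control effect; compound concentration not given in the record; the text of the record puts the active cut at -80%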
Target sequence (Q9GZU1 whole entry, looked up): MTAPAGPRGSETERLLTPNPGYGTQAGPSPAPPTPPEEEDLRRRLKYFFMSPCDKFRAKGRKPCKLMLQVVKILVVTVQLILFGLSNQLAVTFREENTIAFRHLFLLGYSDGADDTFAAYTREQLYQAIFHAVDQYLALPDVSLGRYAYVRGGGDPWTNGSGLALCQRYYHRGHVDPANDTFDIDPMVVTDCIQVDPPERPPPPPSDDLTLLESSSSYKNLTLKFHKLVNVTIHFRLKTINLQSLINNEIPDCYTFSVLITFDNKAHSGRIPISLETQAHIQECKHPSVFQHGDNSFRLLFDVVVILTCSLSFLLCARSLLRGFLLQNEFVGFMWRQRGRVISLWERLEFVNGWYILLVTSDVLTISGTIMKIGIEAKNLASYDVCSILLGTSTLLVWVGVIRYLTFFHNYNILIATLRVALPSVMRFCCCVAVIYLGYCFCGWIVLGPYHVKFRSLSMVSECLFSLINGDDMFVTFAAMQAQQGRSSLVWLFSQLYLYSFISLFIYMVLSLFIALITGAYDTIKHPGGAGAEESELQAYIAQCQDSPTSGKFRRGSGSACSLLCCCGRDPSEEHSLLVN
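TRPML1-DL cells, Tet-induced overnight (~16 h, 37 °C) at 1,500 cells/well, were loaded with Ca8 no-wash dye plus quencher for 45-90 min at room temperature. Compounds were pinned during FDSS kinetic reading; agonist 54-4 at EC80 (4 uM final) then added.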
ClpP mod: qHTS Assay for Activators of ClpP | Potency, µM (top dose mostly 57.5 µM), without a hit: at the highest dose activity change, negative = active | purified B. subtilis ClpP, FRET peptide cleavage, 20 min | actives 1.9% (n = 340,000) | AID 651965, 2013; active = well fitted falling curve with a large enough effect; inconclusive = small, poorly fitted or top-dose-only effect; inactive = no such curve, though single readings can be large or run the other way; further: potency means the concentration at half of the fitted maximal effect; the source files actives as falling curves though it sought activators and does not explain the sign; nearly all actives have a fitted effect of over 65% in size; many hits overshoot -100%
Target sequence (P80244 whole entry, looked up): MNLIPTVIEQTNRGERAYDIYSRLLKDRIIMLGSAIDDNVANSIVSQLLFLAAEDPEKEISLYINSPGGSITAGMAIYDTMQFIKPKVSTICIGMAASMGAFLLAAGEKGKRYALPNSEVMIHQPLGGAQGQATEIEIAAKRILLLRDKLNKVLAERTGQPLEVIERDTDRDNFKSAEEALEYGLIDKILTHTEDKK
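FRET quenching reversal measured ClpP activation: 10 microg/mL B. subtilis ClpP at pH 8 with the FRET-FV decapeptide, read at 430 nm after 320 nm excitation. The 20-min minus 0-min signal was scaled between DMSO/no-enzyme wells and ADEP (5.8 microM final).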
gsp ag: gsp mutant agonism; gsp mutant cells, cAMP HTRF, 30 min; control for the full effect not named in the record; Potency, µM (highest dose often 76.9 µM), for inactives: at the top dose activation (cAMP increase), usual class: activators; actives 0.13% (n = 340,000); AID 624287; active = well fitted activation curve with a large enough effect; inconclusive = small, poorly fitted or top-dose-only effect, or another doubt; inactive = no such curve, though single readings can be large or run the other way; cell line not stated here;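 further: phosphodiesterase inhibitor Ro 20-1724 added with compounds to block cAMP breakdown; potency means the concentration at half of the fitted maximal effect; nearly all actives have a fitted effect of over 60% in size; about a fifth of the inactives were tested at one dose only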
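Cells in DMEM/10% FBS with G418 were pretreated with compounds in DMSO plus […] (300 uM stock) for 30 min at 37C. cAMP was measured by HTRF (cAMP-d2 plus anti-cAMP antibody-K) after 30 min at room temperature.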
Menin-MLL FL inh: menin-MLL binding inhibition, fluorescein peptide; 290,000 tested, under 10 active; FP activity change, % at 61.4 µM; Fluorescence polarization, fluorescein-MLL peptide displacement from menin; inconclusive = falling polarisation curve, or a change in total fluorescence; inactive = total fluorescence flat and polarisation flat or rising; no compound was filed as active; the % refers to the polarisation; negative = inhibition;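 further: % of control where 0% means no effect; inhibitors lower the polarisation; unlabelled MLL peptide was the positive control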
* hit, by the source's call; ? = inconclusive; . = no result given; [ ] = another dose, or the depositor's remark.

SMILES	Sfp inh	gsp antag	TRPV1 PAM	TRPML1 inh	ClpP mod	gsp ag	Menin-MLL FL inh
COc1ccc(NC2CCCN(C(=O)c3cc(CC(C)C)nc(N)n3)C2)cc1 (centres undefined)	-2%	-2%	-6	1	-7.6%	-9%	.
COc1ccc(-n2nnnc2SCC(=O)NC2CCS(=O)(=O)C2)cc1 (centres undefined)	.	3%	.	7	1.4%	0%	.
Cc1c(C(C)C[C@H](C)O)oc(=O)c2c1Oc1c(C)c(C(C)C[C@H](C)O)oc(=O)c1C2 (some centres undefined)	.	?	-6	8	-0.5%	-2%	.
CC/C(Cc1ccccc1)=N/NC(=O)CCn1nnc2ccccc21	6%	-9%	6	14	.	2%[15.4 µM]	-4.1
CSCCC(NC(=O)c1ccc(Cl)cc1Cl)C(=O)OC(C)C(=O)NCc1ccco1 (centres undefined)	.	-13%	7	0	1.3%	-79%[inhibitor]	.
O=C(NC1C(=O)NNC1c1ccccc1)c1ccccc1 (centres undefined)	11%	-10%	-2	9	-3.5%	21%	1.7
CCOc1ccc(S(=O)(=O)Nc2nc3ccccc3nc2-n2ccc(=NC(=O)c3cccs3)cc2)cc1	4%	-17%	1	-2	8.5%	19%	?
Cc1ccc([N+](=O)[O-])c2c1C(N1CC(C)OC(C)C1)C(C)(C)O2 (centres undefined)	11%	-2%	9	7	.	2%	0.1
COCCCn1c(SCC(=O)N(C)C)nnc1-c1ccccc1	16%	6%	-5	-11	-1.8%	5%	2.9
Cc1noc(C)c1C(=O)OC(C)C(=O)N(C)c1ccccc1 (centres undefined)	.	5%	23	3	0.6%	7%	.
COc1ccccc1-c1nnc(NC(=O)C2CCCN2S(=O)(=O)c2cccs2)o1 (centres undefined)	.	.	.	29	-4.4%	4%	.
S=C(Nc1ccccc1)c1nc2ccccc2s1	15%	-6%	1	-3	0.4%	-7%	-1.5
Cc1cccc(NC(=O)Cn2cccc2)c1	15%	-3%	.	9	-0.1%	?	-5.7
Cc1ccc(CNS(=O)(=O)c2cn(C)cn2)cc1	9%	3%	4	10	-1.3%	-62%[inhibitor]	3.8
Cc1nc(C)c(C(=O)Nc2cccc(F)c2)s1	-5%	1%	0	9	.	-52%[inhibitor]	-4.9
O=C(CNC1CCCCCC1)Nc1ccccc1N1CCCCC1	?	-1%	-22	3	-0.3%	2%	0.6
C#CCNC(=O)C1=C[C@H](c2csc3ccccc23)C[C@H](OCCCCO)O1	-7%	-16%	6	1	-1.8%	.	0.8
Cc1cc(C)c2c(=O)[nH]c(SCC(=O)N3CCCCC3)nc2n1	4%	1%	4	-6	?	1%	2.1
COc1cccc(C(=Cc2ccc([N+](=O)[O-])cc2)C(=O)O)c1	.	.	.	22	1.3%	-36%[inhibitor]	.
COC(=O)c1ccc(NC(=O)CN(C)S(=O)(=O)c2ccc(OC)c(C)c2)cc1	?	?	4	13	-0.9%	6%	5.0
CCn1c(=NC(=O)CN2C(=O)CCC2=O)sc2c(OC)ccc(OC)c21	27%	3%	-22	-3	?	24%	-2.2
O=[N+]([O-])c1ccc2nnn(O)c2c1	-1%	6%	4	-3	1.4%	10%	-1.5
Cc1ccn2c(CNC(C)c3cn(C)nc3C)c(C(=O)N3CCCCCC3)nc2c1 (centres undefined)	14%	6%	-5	-12	-26%	-23%	.
COc1ccc2cnn(Cc3ccccc3)c(=O)c2c1OC	5%	9%	-1	-11	?	4%	-0.4
CC(=O)c1ccc(NC(=O)Nc2ccc([N+](=O)[O-])cc2)cc1	6%	4%	13	23	0.8%	-7%	2.2
Cn1c(CNc2ccc(Cl)cc2)nnc1SCC#N	20%	-4%	0	-9	-1.3%	2%	-3.0
O=S(CC1CC1(Cl)Cl)CC1CC1(Cl)Cl (centres undefined)	8%	7%	3	36	-2.8%	-77%[inhibitor]	12
CCOCCCNCc1ccc(OCc2ccccc2C)c(OC)c1	-12%	18%	-2	-24	2.4%	7%	-5.0
C=CCOc1ccc(/C=N/NC(=O)c2c(C)nc3ccc(Cl)cn23)cc1	10%	2%	7	0	.	?	1.7
CC(=O)Oc1ccc(/C=N/NC(=O)CCSc2ccccc2)cc1	4%	13%	2	-11	.	-20%[15.4 µM]	1.1
CC(C)N(C(=O)NC(=O)Nc1ccc(S(=O)(=O)N2CCCC2)cc1)S(C)(=O)=O	14%	9%	1	15	-1.2%	7%	-0.2
CCN1C(=O)/C(=C/c2cccs2)N(C)C1=S	-12%	12%	23	12	1.6%	-34%	1.5
COc1ccc(C(=O)COC(=O)C(CCSC)NS(=O)(=O)c2ccc(Cl)cc2)cc1 (centres undefined)	5%	-25%	8	14	-1.0%	-5%	5.9
O=C(Nc1ccccc1N1CCOCC1)c1cccc(F)c1	2%	8%	15	3	.	-1%[15.4 µM]	-0.6
CNS(=O)(=O)c1cccc(C(=O)OC2CCCCC2=O)c1 (centres undefined)	9%	1%	7	-7	-1.0%	-2%	-3.0
O=C(CN1CCN(Cc2ccccc2)CC1)NCc1ccc(Cl)cc1	4%	-2%	-4	-8	-0.2%	13%[15.4 µM]	1.8
Cc1ccnc(N/N=C/c2ccccc2)n1	6%	10%	-18	-10	-7.8%	-6%[15.4 µM]	2.7
COc1cc(-c2noc(C3CCCN(C(=O)c4c(F)cccc4F)C3)n2)cc(OC)c1OC (centres undefined)	2%	-5%	29	-7	-0.4%	?	-1.1
COc1ccc(C(=O)Nc2ccncc2)cc1OC	-9%	7%	2	-2	-1.3%	-40%[inhibitor]	2.0
Cc1cc(C)n(-c2nc3ccccc3nc2N2CCN(C(=O)c3ccccc3)CC2)n1	16%	-8%	-17	5	-1.6%	-16%	-1.8
O=C(COc1ccc(-c2nnco2)cc1)Nc1c(F)cccc1F	.	6%	-3	13	.	-7%[15.4 µM]	.
S=c1[nH]nc(Cc2sc(-c3ccccc3)nc2-c2ccccc2)o1	6%	-28%	-5	-4	-14%	28%	1.1
CC(=O)c1sc(-c2ccc(Cl)cc2)nc1C	7%	-10%	8	10	-1.0%	28%	0.1
Clc1ccc(-c2cnc3n2CCCCC3)cc1	14%	3%	-12	-3	.	-1%	-2.6
CC1Cc2ccccc2N1C(=O)Cn1cc([N+](=O)[O-])cn1 (centres undefined)	16%	3%	?	33	-1.3%	18%	3.7
COc1ccc(-c2nc(CSCC(=O)NC3CCCc4ccccc43)c(C)o2)cc1OC (centres undefined)	-11%	?	-13	9	28µM*	0%	2.1
O=C(c1ccccc1)c1ccc(OCC(O)CN2CCCCC2)cc1 (centres undefined)	1%	5%	4	-29	-0.6%	-7%	3.8
FC(F)(F)c1ccccc1N/N=C/c1cccnc1	13%	2%	-2	0	.	-9%	-0.1

3 of the compounds above, with two lines to a compound.
Second line of a record – Sfp inh	gsp antag	TRPV1 PAM	TRPML1 inh	ClpP mod	gsp ag	Menin-MLL FL inh
> COc1ccc(C(=O)Nc2ccncc2)cc1OC
  -9%	7%	2	-2	-1.3%	-40%[inhibitor]	2.0
> O=C(Nc1ccccc1N1CCOCC1)c1cccc(F)c1
  2%	8%	15	3	.	-1%[15.4 µM]	-0.6
> O=[N+]([O-])c1ccc2nnn(O)c2c1
  -1%	6%	4	-3	1.4%	10%	-1.5

Additional results
SMILES	Sfp inh	gsp antag	TRPV1 PAM	TRPML1 inh	ClpP mod	gsp ag	Menin-MLL FL inh
CN(C)c1ccc(C2NCCS2)cc1 (centres undefined)	-2%	20%	?	17	-11%	-1%	0.2
CCS(=O)(=O)c1ccc(O)c(NC(=O)c2cc(OC)c(OC)c(OC)c2)c1	-8%	6%	18	2	-1.6%	?	-0.3
CN(C)C(CNC(=O)c1ccc(C(=O)c2ccccc2)cc1)c1ccccc1 (centres undefined)	9%	5%	-5	-8	.	9%	-0.6
O=C(COC(=O)c1nc(Cl)ccc1Cl)Nc1ccccc1OC(F)F	16%	4%	3	7	-2.1%	-13%[15.4 µM]	37[activator]
COc1ccc(C(c2c(C)n(C)n(-c3ccccc3)c2=O)c2c(C)n(C)n(-c3ccccc3)c2=O)cc1OC	12%	-9%	7	7	-0.2%	?	-0.5
COc1cc(NC(=S)Nc2ccccn2)cc(OC)c1OC	8%	2%	0	15	.	14%[15.4 µM]	3.5
O=[N+]([O-])c1cc2c(cc1CN1CCN(CCOCCO)CC1)OCO2	79µM*	-7%	7	.	-10%	-6%	3.4
O=C(COC(=O)CN1C(=O)C2CCCCC2C1=O)NCc1ccc(Cl)cc1Cl (centres undefined)	.	-8%	0	-8	1.1%	-80%[inhibitor]	.
O=c1oc(-c2ccccc2NS(=O)(=O)c2ccc(Cl)cc2)nc2ccccc12	1%	-14%	12	5	-0.7%	-11%[15.4 µM]	1.1
CCOc1cccc(C(=O)NC(=S)Nc2ccc(Cl)cc2C(=O)O)c1	45µM*	.	?	-8	.	39%[15.4 µM]	-2.2
CC(NC(=O)c1ccccc1Cl)C(=O)O (centres undefined)	9%	6%	-3	22	-0.2%	20%	-1.5
CCc1ccc(N(C(=O)c2csnn2)C(C(=O)NCc2ccccc2)c2ccco2)cc1 (centres undefined)	?	-9%	3	16	1.3%	6%	4.2
O=C(c1ccccc1Cl)N1CCC(c2nc3c(nnn3Cc3ccco3)c(=O)[nH]2)CC1	-3%	-13%	-5	24	0.5%	?	1.0
CC1(C)CC(=O)C2=C(C1)NC(=O)NC2c1ccc([N+](=O)[O-])cc1 (centres undefined)	10%	3%	21	8	.	-33%[inhibitor]	3.9
Cc1ccc(C(=O)CSc2nc(O)cc(=O)[nH]2)cc1C	4%	0%	20	14	1.0%	-4%	1.1
CCCN1CCN(C(=O)Cn2c(=O)oc3cc(S(=O)(=O)NCc4ccccc4)ccc32)CC1	9%	4%	-3	-2	-1.6%	-6%	-1.6
CCn1c(COc2ccc(OC)cc2)nnc1SCc1nc2ccccc2c(=O)[nH]1	4%	.	6	.	.	.	-1.1
c1ccc(-c2c(-c3ccccc3)n(Cc3ccco3)c3ncnc(NCCCn4ccnc4)c23)cc1	63µM*	-4%	11	34	25µM*	-43%	7.3
